Autofluor counter: compound fluorescence in toxin protease inhibitor counterscreen; compound autofluorescence counterscreen, microsphere flow cytometry; active compounds read high; fluorescence intensity (concentration not given with the values); 3.1% of 360,000 active; AID 624483;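 active = at least 3 SD above the mean of all compounds, about 16000 in these data; inconclusive = too few beads counted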;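 also: 100 nL of 1 mM stock went into each well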
Sa RN4220 lethal: S. aureus RN4220 growth inhibition | inhibition, % (concentration not given with the values) | OD600, 16 h | 0.33% of 330,000 active;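 active = z-score of -3 or lower and OD600 up to 0.18 on both plates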;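 also: plate controls were untreated cells for no effect and reference antibiotic for full effect; stock transfer was 100 nL into about 80 µL; one replicate is shown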
PrP UTR inh: suppresses PrP 5' UTR mRNA reporter expression; cell-based PrP 5' UTR mRNA reporter, plate reader; inhibition, % (concentration not given with the values); 0.35% of 340,000 active;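 active = every replicate at 50% or more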;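 also: 0 = median of the neutral control wells; tested in H4 reporter cells; numbers are from one replicate; inactives centre near -14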
BJeLR lethal: kills HRASV12-expressing BJeLR cells | BJeLR (HRASV12) viability, CellTiter-Glo ATP luminescence, 48 h; reference of the scale not given here | inhibition, % (no concentration beside the values) | 0.17% of 300,000 active;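 active = replicate mean above 50%; inconclusive = above 50% but judged a plate artefact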;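 also: 50 nL library stock added to about 25 µL; numbers are from one replicate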
Mtb hypoxia inh: inhibitors of hypoxia-regulated fluorescent reporter in Mycobacterium tuberculosis | M. tuberculosis hypoxia-regulated fluorescent reporter, fluorescence | fluorescence inhibition, % (no concentration beside the values) | 0.1% of 300,000 active | AID 1159583;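 active = 35 to 45% if threefold the growth effect, above 45% if 1.5-fold the growth effect; inactive = the rest, general growth blockers included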;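 also: wells of about 50 µL received 100 nL stock; 0% = vehicle wells and 100% = reference inhibitor wells; whole bacteria with a GFP reporter of the hypoxia response; strong numbers were not always called active; many hits fall short of the cut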
ugtP null kill: kills S. aureus RN4220 lacking UgtP; growth inhibition, % (test concentration not listed); S. aureus RN4220 ugtP deletion, OD600 growth, 16 h; some inactives read as strong as hits; 0.54% of 330,000 active;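 active = z-score under -3 and OD600 up to 0.15 on both plates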;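 also: plate controls were untreated wells for no effect and antibiotic for full effect; wells of about 80 µL received 100 nL stock; the first replicate is given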
Mtb hypoxia inh growth: recorded beside Mtb hypoxia inh, whose call it bears; growth inhibition, %; measured here: M. tuberculosis growth (absorbance);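 0% = vehicle and 100% = reference antibiotic; read after six days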
The depositor's hits bear a star; ? = inconclusive; nt = not tested or not shown.

SMILES	Autofluor counter	Sa RN4220 lethal	PrP UTR inh	BJeLR lethal	Mtb hypoxia inh	Mtb hypoxia inh growth	ugtP null kill
Cc1ccn2c(-c3csc(NCc4ccco4)n3)c(C)nc2c1	2992	-0.4	-11	-4	12	8	-7
CC(C)N(Cc1nccn1C)C(=O)c1ccc(OC2CCN(C(=O)C3CC3)CC2)cc1	4665	1.1	-23	-1	7	-9	3
O=C(Nc1c[nH]c(=O)[nH]c1=O)c1cccc([N+](=O)[O-])c1	?	-4.2	7	-18	-4	-4	3
O=C(c1ccc(Cl)c(S(=O)(=O)N2CCCCC2)c1)N1CCN(Cc2ccccc2)CC1	5379	0.1	-22	4	3	-2	-3
NC(=O)CN(c1ccc([N+](=O)[O-])cc1)S(=O)(=O)c1ccccc1	3549	7.5	-28	0	13	9	-5
CC1CCN(C(=O)CSc2nnc(CNC(=O)COc3ccc(Cl)cc3)o2)CC1	2530	-1.9	-23	4	nt	nt	2
OCCCc1nc2n(n1)C(c1ccccc1Cl)C=C(c1cccs1)N2 (stereo not given)	11200	4.6	nt	21	6	6	-3
CCc1nnc(NC(=O)CSc2nnc(-c3ccccc3O)n2CC)s1	25104*	4.7	-29	7	6	1	2
COc1ccc(-c2cc3c(=O)n(CC(=O)NCc4ccc(F)cc4)ncn3n2)cc1	5232	4.2	-44	6	-2	8	0
CCOC(=O)c1cc2nc(Nc3ccc(OC)cc3)sc2s1	3924	-4.0	-36	-3	-3	9	-10
COc1ccc(NC(=O)CN(C)C(=O)c2cc(C)on2)cc1	4702	5.3	-21	-18	3	-2	8
Cc1ncc(CO)c(C=NNC(=O)c2cc3c(s2)CCCC3)c1O	nt	11	nt	nt	4	4	-5
Cc1ccc2c(c1)NC(=O)C(CC(=O)NCCCN1CCN(c3cc(C)ccc3C)CC1)O2 (stereo not given)	4554	-2.2	-11	-2	nt	nt	-2
COCCSc1nnc(NC(=O)C2CC(=O)N(C3CCCC3)C2)s1 (stereo not given)	3060	nt	-27	-11	nt	nt	nt
O=c1oc(Cc2ccccc2)nc2ccccc12	3879	3.7	-39	0	16	13	7
COc1cc(-c2ccc(NC(=O)CN3CCC(C)CC3)c(OC)c2)ccc1NC(=O)CN1CCC(C)CC1	9112	-1.4	-19	1	0	5	-2
CS(=O)(=O)N1CCCC(C(=O)Nc2ccccc2C(F)(F)F)C1 (stereo not given)	4143	-2.2	-29	-8	6	-8	3
COC(=O)CNC(=O)c1cn(CC(C)C)c(=O)c2cc(OC)c(OC)cc12	4488	3.8	-12	-1	7	14	5
COc1ccc(/C=C/C(=O)NC(=S)NNC(=O)c2cccs2)cc1OC	4569	14	nt	4	-1	7	13
CCCC[C@@H]1CN=C(N)N1CC(C)(C)C	3775	nt	-9	-10	nt	nt	nt
COc1cccc(C(=O)Oc2cccc(N3C(=O)C4C5CC(C(Br)C5Br)C4C3=O)c2)c1 (stereo not given)	10239	0.5	-13	-1	7	9	-5
COc1cccc(OCc2cc(C(=O)N3CCN(C4CCCC4)CC3)no2)c1	4607	-2.2	-6	8	9	-10	4
CC(=O)c1ccc(Cc2ncc(C(F)(F)F)cc2Cl)s1	2706	-0.4	-31	2	nt	nt	1
O=C(CSc1n[nH]c(=O)n1C1CC1)Nc1ccc(OC(F)(F)F)cc1	2775	4.5	-20	nt	8	5	9
Cc1ccc(NC(=O)COC(=O)c2c[nH]c3ccccc23)cc1C	3314	5.9	-16	nt	9	-2	-12
CCOC(=O)N1CCC(NC(=O)COc2cc(=O)n(C)c3ccccc23)CC1	4823	2.1	-4	-1	3	0	4
CCCC=C1CCCOC(C(=O)NCc2cc(C)n(C)n2)(C(F)(F)F)C1 (stereo not given)	nt	3.7	nt	nt	12	12	-11
COc1ccc(CCNC(=O)C(=O)Nc2ccc3c(c2)OCCO3)cc1OC	4740	4.7	-11	-5	13	6	3
CSc1nc(-c2ccco2)nn1C(=O)c1ccco1	6175	0.9	-16	-19	nt	nt	-4
O=C(CSc1nc2ccccc2s1)N1N=C(c2cccs2)CC1c1ccc(F)cc1 (stereo not given)	2455	1.1	-1	-13	6	1	1
O=C(CN(C1CCCCC1)S(=O)(=O)c1ccc(Br)cc1)NCc1ccncc1	4412	1.4	-3	-2	9	5	4
CCn1c(SCC(=O)Nc2ccc(F)cc2)nnc1C1CC1	4471	-1.3	-17	-1	-8	-4	-1
COC(=O)CC1(CC(=O)OC)C(=O)N(c2ccccc2)C(=O)N(c2ccccc2)C1=O	3848	-1.3	-28	6	17	7	-4
Cc1cc(NCCCN2CCOCC2)n2ncc(-c3ccc(Cl)cc3)c2n1	23672*	-10	-32	2	7	10	-2
CC1CCN(c2nnc(N3CCC(C)CC3)c3ccccc23)CC1	5485	4.8	-16	-3	18	14	5
Cc1cc(C)c(C(=O)N2CCCC(CNS(=O)(=O)N(C)C)C2)o1 (stereo not given)	5718	3.0	-43	6	12	15	3
O=C(CCCCCNC(=O)c1ccccc1)N/N=C/c1ccc(O)cc1O	6500	nt	-13	6	nt	nt	nt
O=C(CCN1CCCCCC1)Nc1ccc(F)c(F)c1	4188	-6.8	-69	5	-3	-2	-5
CC(=O)c1ccccc1OCC(O)CN1CCN(CCN2C(=O)c3cccc4cccc(c34)C2=O)CC1 (stereo not given)	3277	2.9	-12	-2	-25	3	-7
COc1cccc(C(=O)NC(=S)Nc2ccc3[nH]c(=O)[nH]c3c2)c1	3649	4.7	-44	-8	7	4	0
C[C@H](CO)N1C[C@H](C)[C@@H](CN(C)C(=O)NC2CCCCC2)Oc2c(NC(=O)C3CC3)cccc2C1=O	2866	24	-23	nt	4	0	16
O=C(CN1CCN(C(=O)c2ccc(-c3nc4ccccc4s3)o2)CC1)Nc1ccc(F)cc1	nt	5.1	nt	nt	4	4	0
Cc1ccsc1C(=O)OCC(=O)c1ccc(OC(F)F)cc1	3817	0.7	-24	nt	5	-2	1
CSc1nc(C)cc(OCC(=O)N2CCOCC2)n1	2935	0.6	-19	0	nt	nt	7
Cc1ccc(NC(=O)C(Nc2ccccc2)c2ccccc2)cc1 (stereo not given)	2016	1.0	-7	3	9	-3	7
c1ccc2[nH]c(CN3CCCCC3)nc2c1	7724	7.4	-20	-16	0	3	-3
CN(C)c1ncc(S(=O)(=O)c2ccc(Cl)cc2)c(-c2ccc(Cl)cc2Cl)n1	10495	-1.3	-20	4	3	12	11
C/C(=N/NC(=O)c1ccco1)c1ccc(Br)s1	4669	nt	-8	-2	nt	nt	nt
O=C(O)c1cccc2c1NC(c1cccc([N+](=O)[O-])c1)C1CC(Sc3ccccc3[N+](=O)[O-])C(Cl)C21 (stereo not given)	3375	32	-4	0	15	1	32
S=c1[nH]nc(COc2ccc(Cl)cc2)n1Cc1ccco1	3547	9.4	-17	1	14	0	-3
CC(=O)Nc1nnc(CCS(=O)(=O)c2ccc(C)cc2)s1	4325	3.5	11	6	8	-4	0
CCCCOCCCNC(=O)c1ccc(NC(C)=O)cc1	7386	2.7	-33	-8	7	-1	4
COc1ccc(CSc2nncn2N)cc1Br	2105	2.3	-8	2	nt	nt	6
CCc1nnc(NC(=O)CCC(=O)N2CCN(Cc3cc(F)ccc3OC)CC2)s1	2249	0.3	-13	2	18	8	3
CCc1ccc(OCC2c3cc(OC)c(OC)cc3CCN2C(=S)NCCOC)cc1 (stereo not given)	2024	1.6	-10	-6	0	0	12
CCCCN(C(=O)c1ccc(-c2ccc(Cl)cc2)o1)c1c(N)n(CCCC)c(=O)[nH]c1=O	6703	8.6	-3	nt	7	-1	12
O=C(CSc1nc2ccccc2[nH]1)NC1CCCc2ccccc21 (stereo not given)	2414	3.1	-8	8	12	10	1
CCOC(=O)C1CCN(C(=O)CCNC(=O)Cn2ccc3ccccc3c2=O)CC1	?	7.7	-17	7	-1	4	-6
NC(=O)c1cccnc1Nc1cccc(F)c1	3136	3.1	7	-9	14	8	9
Cc1ccc2nc(NC(=O)[C@H](C)N3C(=O)C4CC=CCC4C3=O)sc2c1 (stereo not given in full)	4226	9.1	-32	5	-2	5	-3

(further entries)
SMILES	Autofluor counter	Sa RN4220 lethal	PrP UTR inh	BJeLR lethal	Mtb hypoxia inh	Mtb hypoxia inh growth	ugtP null kill
COc1ccc(-c2nc(CSCC(=O)N3CCN(C(=O)c4ccco4)CC3)c(C)o2)cc1OC	5527	0.2	-14	-7	nt	nt	4
O=C(CN(C(=O)CCC(=O)Nc1nccs1)C1CCCC1)NCc1ccc2c(c1)OCO2	4184	1.9	-16	3	1	10	4
C=CCOc1ccccc1/C=N/NC(=O)Cc1ccc(C)cc1	4138	nt	-10	-9	nt	nt	nt
COc1cc(C(CCN2CCOCC2)c2c(OC)cc(OC)c3c(-c4ccccc4)cc(=O)oc23)cc(OC)c1OC (stereo not given)	3551	-4.6	1	nt	0	6	-10
CCCc1nnc(SCC(=O)Nc2cccc(Cl)c2Cl)o1	3617	2.2	-27	-12	nt	nt	3
O=C(Nc1cc(S(=O)(=O)N2CCCC2)ccc1OCC(F)(F)F)c1ccc(F)cc1	2493	3.1	-4	-25	-7	1	3
COc1ccccc1NC(=O)N1CCN(C)CC1	4786	1.6	31	-3	-2	-19	9
CCn1c(=O)n(CC)c2cc([N+](=O)[O-])ccc21	9393	0.1	-25	1	-1	12	-5
Cc1c(C(=O)NCCCN2CCCC2=O)oc2ccccc12	10228	2.4	-12	nt	3	9	0
Cc1ccc(C=NNC(=O)CN2CCN(S(=O)(=O)c3ccc(Br)cc3)CC2)s1	nt	6.4	nt	nt	11	12	3
CCc1ccc(N(CC(=O)Nc2sc3c(c2C(=O)OC)CCCC3)S(C)(=O)=O)cc1	2043	1.5	-14	9	9	6	14
O=C(NCc1ccco1)C1CCCN1C(=O)Nc1ccc(Cl)cc1 (stereo not given)	4245	1.7	-8	-5	2	11	-1
O=C(COc1nsnc1N1CCOCC1)NN=Cc1ccccc1O	nt	-1.2	nt	nt	6	1	7
O=C(Nc1ccc(Cl)cc1Cl)N1CCN(c2ncccn2)CC1	4430	4.1	13	-2	8	9	2
CN=C(SCc1cc2c(cc1Cl)OCO2)c1c(O)n(C)c(=O)n(C)c1=O	8607	4.8	-5	3	4	3	4
Cc1csc(NC(=O)CSc2ccc(-c3ccccn3)nn2)n1	4693	4.8	-23	-4	nt	nt	5
COc1ccc2c(c1)CCc1c(C(=O)NC3CCCCC3)noc1-2	10442	3.9	-36	5	14	6	-5
C=CCOc1cccc(C=NNC(=O)CN(c2cc(Cl)ccc2OC)S(=O)(=O)c2ccc(C)c([N+](=O)[O-])c2)c1	nt	1.7	nt	nt	13	10	-1
CCn1cc(/C=N/NC(=O)COc2cccc3cccnc23)c2ccccc21	1967	nt	-21	-17	nt	nt	nt
O=C1Nc2cc(C(=O)N3CCC(N4CCCCC4)CC3)ccc2S/C1=C\c1ccccc1	5192	-2.1	10	7	15	8	5
S=C(Nc1ccc(Cl)cc1)N1CCN(Cc2ccccc2)CC1	3864	6.0	-8	0	0	10	0
Fc1cccc(/C=N/Nc2nncc3ccccc23)c1	3485	nt	-3	4	nt	nt	nt
COc1ccc(S(=O)(=O)N2CCCC2CNC(=O)C(=O)NC2CCCCCC2)cc1 (stereo not given)	4337	1.3	-19	5	6	6	5
CC(=O)Nc1ccc(S(=O)(=O)N[C@H](C(=O)O)C(C)C)cc1	2791	4.9	-22	5	nt	nt	1
COC(=O)c1sc(-c2ccccc2)cc1NC(=O)c1cc(OC)cc(OC)c1	2224	8.0	-16	12	10	-2	-5
CCCc1nnc(NC(=O)CC(=O)Nc2ccccc2C(=O)O)s1	2407	3.6	4	-1	5	10	0

Assay outcomes: PubChem BioAssay, several laboratories
